High-throughput results (PubChem)
Rango release inh – inhibition of RanGTP-driven Rango-importin beta dissociation. O95149+P62826. Biochemical FRET Rango-importin beta, RanGTP-induced dissociation. Potency, µM (doses to about 46.1 µM), for inactives: at the highest dose activity change, negative = inhibition. actives 0.071% (n = 340,000); active means falling FRET ratio curve, often poorly fitted, with flat reads before Ran was added; inconclusive means other falling curves, or compound fluorescence or quenching; inactive means flat or rising ratio curve;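 also: potency is read from the fitted curve at half-maximal effect; % of control where 0% means no effect; nearly all actives have a fitted effect of over 45% in size; -100% = wells without RanGTP and RCC1; the record marks most hits as doubtful in a second field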
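Rango FRET biosensor (snurportin-1 IBB flanked by N-terminal EYFP and C-terminal CFP10) at 0.1 uM, with 0.25 uM importin beta in PBS, 1mM DTT, 0.02% Tween-20, 0.1% BSA. 0.6 uM Ran, 2mM GTP and 0.2 uM RCC1 were then added for 45 min at room temperature. Inhibition read as loss of FRET rise.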
GLA inh pH 4.5 – blocks human alpha-galactosidase A at pH 4.5. 230,000 tested, under 10 active. activity change, negative = inhibition, % at 105 µM. purified enzyme, 4-MU-alpha-Gal fluorescence, pH 4.5. P06280; inconclusive = small, poorly fitted or top-dose-only inhibition, or a rising curve; inactive = flat fitted curve, though single readings scatter; no compound was filed as active;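 also: 0% = full activity with enzyme and -100% = basal without enzyme; dose as in the result columns while the protocol names 77 µM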
Target sequence (P06280 whole entry, looked up): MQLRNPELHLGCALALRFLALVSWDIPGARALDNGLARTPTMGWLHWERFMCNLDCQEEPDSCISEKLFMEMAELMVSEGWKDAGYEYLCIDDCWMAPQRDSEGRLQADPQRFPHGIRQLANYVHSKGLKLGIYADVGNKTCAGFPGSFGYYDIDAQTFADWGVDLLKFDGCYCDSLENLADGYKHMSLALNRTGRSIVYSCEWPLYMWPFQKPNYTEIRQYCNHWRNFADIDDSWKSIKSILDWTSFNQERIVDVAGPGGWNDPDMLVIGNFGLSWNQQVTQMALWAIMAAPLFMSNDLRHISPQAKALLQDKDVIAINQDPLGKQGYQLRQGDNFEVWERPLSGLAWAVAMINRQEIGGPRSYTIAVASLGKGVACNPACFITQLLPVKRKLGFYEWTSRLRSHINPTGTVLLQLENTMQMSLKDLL
miR-21 FLuc – miR-21 reporter, rising signal | HeLa miR-21 FLuc reporter, luciferase, 48 h | Potency, µM (top dose mostly 38.3 µM), for inactives: top-dose reporter change, positive = more light | 340,000 tested, under 10 active | AID 2288; active = well fitted rising curve with a large enough effect; inconclusive = small, poorly fitted or top-dose-only effect; inactive = no such curve, though single readings can be large or run the other way;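 also: % of control where 0% means no effect; miR-21 action dims this reporter so a rising signal means less miR-21 action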
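Luminescence from a firefly luciferase reporter carrying a miR-21 binding site downstream, stably expressed under a CMV promoter in HeLa cells that make miR-21 endogenously, reports miRNA modulation after 48 h compound exposure up to approximately 40uM final.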
Rango complex inh – prevents formation of the Rango-importin beta complex | Potency, µM (series often up to 92.2 µM), for inactives: at the highest dose inhibition of complex formation | Q14974 | Rango CFP/YFP FRET sensor + importin beta, 45 min | AID 540263 | actives 0.031% (n = 340,000); active = rising FRET ratio curve, often small or poorly fitted; inconclusive = mostly compound fluorescence or quenching in the first reads; inactive = flat curves in all reads;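 also: potency is read from the fitted curve at half-maximal effect; 0% = DMSO wells and 100% = buffer wells lacking importin beta; nearly all actives have a fitted effect of over 15% in size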
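Inhibition scored from the CFP 486 nm/YFP 530 nm FRET ratio 45 min after adding 0.125 microM importin beta to 50 nM Rango biosensor preincubated 5 min with compound (room temperature, PBS with DTT, Tween-20, BSA). No-importin wells as positive control.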
An asterisk follows results filed as active; ? = inconclusive; · = no result given; & = joins results of further samples. These rows are one share of the data; the hit share may differ from the screen's.

item	structure	Rango release inh	GLA inh pH 4.5	miR-21 FLuc	Rango complex inh
1	Cc1nn(-c2ccccc2)c2[nH]c(=O)c(CNCCN3CCOCC3)cc12	-25%	2	-2%	?
2	O=C(Cn1cnc2ccccc21)N/N=C/c1ccccc1	-1%	1	-1%	-0.1%
3	S=c1[nH]ncn1/N=C/c1ccccn1	-1%	4	-6%	1.7%
4	CC(C)(C)NC(=O)C(c1ccc(F)cc1)N(Cc1ccco1)C(=O)CCC(=O)Nc1nccs1 (stereo not drawn)	?	·	-2%	4.9%
5	O=[N+]([O-])c1ccc(S(=O)(=O)NCC(c2cccnc2)N2CCOCC2)cc1 (stereo not drawn)	-6%	2	0%	-2.3%
6	CCCC(=O)Nc1cccc(S(=O)(=O)N(C)c2ccccc2)c1	6%	-5	-5%	-0.1%
7	C/C(=C\C(=O)c1ccc(Br)cc1)NCc1ccc(C)cc1	12%	0	0%	3.7%
8	C=CCn1c(N)c(C(=O)NCC2CCCO2)c2nc3ccccc3nc21 (stereo not drawn)	?	-3	17%	?
9	CC(=O)Nc1ccc(C(=O)CSc2nnc(-c3ccccc3F)n2CCc2ccccc2)cc1	-11%	·	·	6.2%
10	O=C(O)C1CCCN1c1nc(-c2ccc(Cl)c(Cl)c2)cc(C(F)(F)F)n1 (stereo not drawn)	0%	·	·	3.6%
11	COc1ccc(Cn2nnc(C(=O)Nc3ccc4c(c3)OCCO4)c2N)cc1Br	33%	·	-2%	-0.3%
12	CCN1C(=O)[C@@H]2[C@@H](c3ccc(-c4ccc(F)cc4)c(OC)c3)N3CCCC[C@@]3(C(=O)OC)[C@@H]2C1=O	5%	·	·	?
13	[O-][n+]1cccc(C(O)c2ccccc2)c1 (stereo not drawn)	-8%	·	2%	15%
14	CCCC(=O)n1nc(-c2ccco2)nc1N	-8%	1	-3%	2.9%
15	COc1ccc(OCC(O)Cn2c(Br)nc3c2c(=O)[nH]c(=O)n3C)cc1 (stereo not drawn)	?	-24	19%	?
16	COc1ccc(S(=O)(=O)Nc2ccc(S(=O)(=O)NCC3CCCO3)cc2)cc1 (stereo not drawn)	-2%	·	-1%	6.2%
17	CC(=O)Nc1ccc(NC(=O)c2ccc(NS(=O)(=O)c3cc(C(C)(C)C)ccc3C)cc2)cc1	1%	4	-1%	-0.8%
18	COc1ccc(NC(=O)C(NC(=O)CNC(C)=O)c2ccc(C)cc2)cc1 (stereo not drawn)	0%	5	-14%	1.2%
19	CC(OC(=O)COc1ccc(C#N)cc1)C(=O)c1ccccc1 (stereo not drawn)	-8%	·	·	4.3%
20	COC(=O)c1cc(NS(=O)(=O)c2cccs2)cc(NS(=O)(=O)c2cccs2)c1	-4%	·	·	-4.1%
21	CC(/C=N/Nc1ccc2nncn2n1)=C\c1ccccc1	3%	1	-14%	-3.7%
22	CCc1noc(C)c1C(=O)N(CCCOC)c1c(N)n(Cc2ccccc2)c(=O)[nH]c1=O	-5%	·	·	-3.0%
23	COc1ccc(NC(=O)C2CC(=O)N(c3cccc(C)c3C)C2)cc1 (stereo not drawn)	-7%	6	-5%	0.5%
24	C=CCn1c(SCC(=O)Nc2ccc3c(c2)OCCO3)nc2cc(C(=O)O)ccc2c1=O	14%	·	·	-3.3%
25	CC(=O)c1ccc(N2C(=O)CC(N3CCN(S(=O)(=O)c4cc(C)ccc4C)CC3)C2=O)cc1 (stereo not drawn)	0%	·	·	3.2%
26	Cc1sc(NC(=O)c2ccco2)c(C(c2ccncc2)N2CCOCC2)c1C (stereo not drawn)	-18%	-4	1%	0.1%
27	CN(C)c1ccc(P(=O)(OCc2ccccc2)C(O)c2cccnc2)cc1 (stereo not drawn)	-2%	1	-3%	-1.7%
28	C=CCOC(=O)C1=C(C)Nc2ncnn2C1c1cccs1 (stereo not drawn)	15%	-7	-2%	1.5%
29	COC(=O)c1sc(NC(=O)c2ccoc2C)nc1C	18%	-7	-42%	-0.5%
30	COc1ccc(CNC(=O)c2csc(Cc3ccc(OC)cc3)n2)cc1	-15%	1	0%	0.0%
31	Cc1nn(C(=O)c2cccnc2)c(C)c1C	-11%	0	-2%	7.1%
32	COC(=O)c1cn(C(=O)OC)c2ccccc12	18%	5	-7%	3.8%
33	O=C(NC1CCCCC1)NC1CC2CCCC(C1)N2C1CCCC1 (stereo not drawn)	-17%	-18	-3%	0.0%
34	CC[C@@H](C)[C@H](NC(=O)CCc1c(C)c2cc3c4c(oc3c(C)c2oc1=O)CCCC4)C(=O)O	1%	·	12%	-1.0%
35	CN(C)CCOc1ccccc1C(C)(C)C	-4%	-5	0%	1.0%
36	Cc1nnc(NC(=O)Nc2cccc(Cl)c2)s1	6%	-7	-6%	0.6%
37	CCc1nnc(NC(=O)CN2CCN(CC)CC2)s1	-7%	·	1%	-0.6%
38	Cc1ccc2nsnc2c1NC(=O)c1ccccc1[N+](=O)[O-]	0%	14	1%	2.4%
39	CC(C)c1nn2c(=O)cc(CSc3ccccc3NC(=O)c3ccccc3F)nc2s1	-10%	·	-4%	-0.2%
40	COc1cc2c(cc1OC)CN(CC(=O)Nc1ccc(C#N)cc1)CC2	-9%	-4	-2%	-0.6%
41	CCCCn1c(=O)c(C(=O)OCC)c(O)c2ccccc21	38%	6	2%	-6.0%
42	CN(C)CCCNC(=O)N1c2ccccc2Sc2ccccc21	34%	·	-7%	-1.1%
43	COc1ccc(NC(=O)CCn2ccnc2)c(OC)c1	2%	·	5%	1.0%
44	O=C(NNCC(O)COc1ccccc1)c1ccccc1 (stereo not drawn)	5%	-1	-8%	0.4%
45	CC(C)(C)c1ccc(/C=N/N2C(=O)CSC2=S)cc1	1%	·	-8%	3.0%
46	Cc1ccc(Cl)cc1NC(=O)CN1C(=O)COc2ccc(S(=O)(=O)N3CCOCC3)cc21	0%	·	0%&-2%	-0.1%
47	Cc1ccc(Cn2c(=N)c(C(=O)NCC3CCCO3)cc3c(=O)n4ccccc4nc32)cc1 (stereo not drawn)	?	·	-4%	?
48	Cc1ccc(C)n1NC(=O)c1ccccc1Cl	7%	-4	-6%	3.9%
49	Cc1nc([N+](=O)[O-])cn1-c1ccc(N)cc1	2%	2	-11%	0.4%
50	O=C(CCNC(=O)c1ccc(Br)cc1)NCc1ccco1	2%	·	·	-3.3%
51	O=C(Cn1cnc2cc([N+](=O)[O-])ccc2c1=O)NCc1ccccc1	10%	2	0%	-2.0%
52	COc1cc(NC(=O)c2cccs2)c(OC)cc1NC(=O)Cc1ccccc1	-12%	·	5%	0.2%
53	O=C1/C(=C/c2ccc([N+](=O)[O-])cc2)C=C(c2ccccc2)N1c1ccccc1	0%	-5	-6%	3.7%
54	Cc1c(O)ccc2c(CC(=O)N[C@@H](Cc3ccc(O)cc3)C(=O)O)cc(=O)oc12	?	·	-3%	?
55	CC1(C)c2[nH]c3ccccc3c2C[C@H]2C(=O)N(CCCO)CC(=O)N21	-7%	·	-4%	-0.6%
56	Cc1ccc(C(=O)COC(=O)CCCC(=O)NC2CCCCC2)cc1[N+](=O)[O-]	0%	-4	-5%	6.2%
57	Cc1ccccc1Nc1nc(Cl)c(C=O)s1	-17%	?	9%	?
58	O=C(Nc1cc(Cl)ccc1N1CCCC1)C1=COCCO1	-8%	·	·	1.9%
59	CC(C)(C)C(=O)O/N=C1/C(=O)N(c2ccccc2)c2ccccc21	2%	0	-1%	-0.4%
60	COc1ccc(CNC(=O)CSCc2cnn(-c3ccccc3)c2-n2cccc2)cc1	25%	-8	-1%	-0.2%

Complete entries as entered above.
Profile of `O=C(NNCC(O)COc1ccccc1)c1ccccc1` (stereo not drawn) : Rango release inh = 5%; GLA inh pH 4.5 = -1; miR-21 FLuc = -8%; Rango complex inh = 0.4%
Profile of `Cc1ccccc1Nc1nc(Cl)c(C=O)s1` : Rango release inh = -17%; GLA inh pH 4.5 = ?; miR-21 FLuc = 9%; Rango complex inh = ?

Next compounds:
item	structure	Rango release inh	GLA inh pH 4.5	miR-21 FLuc	Rango complex inh
61	COc1ccc(CNC(=O)CC(C)CC2=NS(=O)(=O)c3ccccc3N2)cc1 (stereo not drawn)	-11%	·	3%&4%	2.6%
62	COc1ccc(-n2c(Cc3cc(=O)[nH]c(=O)[nH]3)nnc2SCc2ccccc2)cc1	6%	3	0%	0.6%
63	CCOC(=O)CSc1n[nH]c(-c2ccco2)n1	19%	-2	-6%	0.8%
64	Cc1ccc(/C=N/NC(=O)CSc2nnc(-c3ccccc3)n2-c2ccc(Cl)cc2)o1	24%	-2	-6%	-1.7%
65	CCCN1C2CCCC1CC(NC(=O)c1ccc(OC)cc1)C2 (stereo not drawn)	21%	·	-2%	0.5%
66	Cc1cccc(Cl)c1NC(=O)N1CCCN(c2ncccc2[N+](=O)[O-])CC1	1%	-4	-4%	7.1%
67	CC(C)NS(=O)(=O)c1ccc(OCC(=O)N2CCN(c3ccccc3)CC2)cc1	-2%	8	9%	-0.9%
68	Cc1ccc(C)c(NC(=O)C(c2ccccc2)N2CCOCC2)c1 (stereo not drawn)	23%	-14	1%	-0.2%
69	COC(=O)c1ccc(COc2ncnc3sccc23)cc1	1%	5	-20%	-1.3%
70	Cc1onc(-c2c(F)cccc2Cl)c1C(=O)Nc1nnc(C2CC2)s1	-7%	0	12%	-0.8%
71	Cc1ccc(N=Nc2c(C)[nH]n(-c3ccccc3)c2=O)cc1	?	-5	4%	0.2%
72	CNS(=O)(=O)c1cc(C(=O)OCC(=O)NC2CCCc3ccccc32)ccc1Cl (stereo not drawn)	0%	0	1%	1.2%
73	O=C(NC(Cc1ccccc1)C(=O)O)OCC1c2ccccc2-c2ccccc21 (stereo not drawn)	-3%	·	-9%	-1.3%
74	O=C(O)c1ccc(NS(=O)(=O)c2cc(C(=O)O)ccc2Br)cc1	2%	2	-2%	0.7%
75	CCOC(=O)COc1cc(OCC(=O)OCC)c2c(=O)cc(-c3ccccc3)oc2c1	2%	-15	-1%	-3.4%
76	COc1cc(NS(=O)(=O)c2ccc(NC(=S)NC(=O)c3ccco3)cc2)nc(OC)n1	18%	-3	0%	-6.3%
77	O=C(NCc1ccccc1Cl)C1CCCN(S(=O)(=O)c2cnc[nH]2)C1 (stereo not drawn)	-4%	-2	1%	-0.4%
78	Cn1ccnc1CC(O)(c1ccccc1)c1ccccc1	-23%	·	1%	4.4%
79	Cc1nc2ccccn2c1C(=O)NNC(=S)Nc1ccccc1	-4%	0	-23%	1.9%
80	O=C(CSc1nnc(CCCOc2ccc(Cl)cc2Cl)o1)Nc1ccc(C(=O)O)cc1	2%	-2	-7%	0.3%
81	Cc1cc(C(=O)CN2C(=O)NC(C)(c3ccccc3)C2=O)c(C)n1CC1CCCO1 (stereo not drawn)	4%	3	-25%	-1.0%
82	CCn1c(SCC(=O)c2cc(C)ccc2C)nc2cc(S(=O)(=O)N3CCOCC3)ccc21	0%	-1	9%	-2.7%
83	COc1ccc(NC(=O)C2CCCN2S(=O)(=O)c2ccc(Cl)cc2)cc1 (stereo not drawn)	10%	·	-2%	-1.2%
84	CCCc1cc(=O)oc2cc(C)cc(OCC(=O)N3CCC(C(=O)O)CC3)c12	0%	·	0%	0.1%
85	CCOc1ccc(-c2noc(CCCC(=O)NC3CCCCC3)n2)cc1OC	22%	·	7%	2.5%
